PINK1 modulator = changes PINK1 expression; 410,000 tested, 0.2% active; Potency, µM (doses to about 76.6 µM), for the others: at the top dose activation (PINK1 increase), hits mostly activators; PINK1 immunofluorescence, high-content cytometry, 24 h; AID 624263; active = well fitted activation curve with a large enough effect; inconclusive = small, poorly fitted or top-dose-only effect; inactive = flat fitted curve, though single readings scatter; cell line not stated here;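 note: potency is the fitted concentration of half-maximal effect; % of control where 0% means no effect; nearly all actives have a fitted effect of over 65% in size; a mitochondrial uncoupler was the plate control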
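Decision-based qHTS: stable cells, 24 h exposure to five compound concentrations, CCCP as control. Fixed cells stained for PINK1 plus nuclear, mitochondrial and cell markers, cytometer read.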
CtBP-E1A inh = CtBP/E1A binding inhibition; AlphaScreen GST-E1A/His-CtBP binding, 1536-well; active compounds read low; control for the full effect not named in the record; activity change, % (concentration not given with the values); 340,000 tested, 0.49% active; in the data active means activity change below about -65%; inconclusive means about -30% to -65%; inactive means above about -30%; note: % is set by controls: 0 for no effect and ±100 for the full control effect
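GST-E1A and His-tagged CtBP (125 nM each as 5X stock) were preincubated with pin-transferred compound for 2 h at 37 °C in the dark, then glutathione donor and nickel acceptor beads were added for 1 h before AlphaScreen reading.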
D2 ag = agonists of human D2 dopamine receptor (beta-arrestin); P14416; DiscoveRx PathHunter D2 beta-arrestin, luminescence, 90 min; 100% = 57 uM dopamine signal; activation, % (concentration not given with the values); 360,000 tested, 0.084% active; AID 624465; in the data active = activation above about 40%; inconclusive = about 15% to 40%; inactive = below about 15%; note: compound concentration not given in the record; the text of the record calls up to 30% inactive
Target sequence (P14416 whole entry, looked up): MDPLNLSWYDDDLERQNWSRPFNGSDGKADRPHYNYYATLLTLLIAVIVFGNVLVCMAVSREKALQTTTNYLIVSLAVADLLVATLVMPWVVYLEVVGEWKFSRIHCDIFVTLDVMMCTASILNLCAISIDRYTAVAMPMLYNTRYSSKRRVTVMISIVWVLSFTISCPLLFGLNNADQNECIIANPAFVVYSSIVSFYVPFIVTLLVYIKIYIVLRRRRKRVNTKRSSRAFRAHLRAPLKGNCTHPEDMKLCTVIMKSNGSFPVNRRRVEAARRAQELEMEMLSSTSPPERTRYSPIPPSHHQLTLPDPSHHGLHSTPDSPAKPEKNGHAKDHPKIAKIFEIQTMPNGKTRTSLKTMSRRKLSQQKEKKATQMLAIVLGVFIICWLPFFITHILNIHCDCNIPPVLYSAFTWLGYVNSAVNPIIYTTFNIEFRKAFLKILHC
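DiscoveRx PathHunter D2 beta-arrestin cells (2,100/well) attached overnight, then compound-stimulated 90 min at 37 C in HBSS/10 mM HEPES/0.1% Tween-20 buffer; beta-galactosidase complementation read by luminescence after 1 h at ambient temperature. Dopamine 57 uM final (EC100) as control.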
TRPML1 ag = human mucolipin-1 channel agonism; Q9GZU1; TRPML1-expressing cells, Ca2+ dye fluorescence, FDSS; host cell line not named in the record; reference of the full effect not given here; activation, % (no concentration beside the values); 410,000 tested, 0.12% active; AID 624414; in the data active = activation above about 50%; inconclusive = about 30% to 50%; inactive = below about 30%; note: 0% is about no effect; the text of the record puts the active cut at 80%
Target sequence (Q9GZU1 whole entry, looked up): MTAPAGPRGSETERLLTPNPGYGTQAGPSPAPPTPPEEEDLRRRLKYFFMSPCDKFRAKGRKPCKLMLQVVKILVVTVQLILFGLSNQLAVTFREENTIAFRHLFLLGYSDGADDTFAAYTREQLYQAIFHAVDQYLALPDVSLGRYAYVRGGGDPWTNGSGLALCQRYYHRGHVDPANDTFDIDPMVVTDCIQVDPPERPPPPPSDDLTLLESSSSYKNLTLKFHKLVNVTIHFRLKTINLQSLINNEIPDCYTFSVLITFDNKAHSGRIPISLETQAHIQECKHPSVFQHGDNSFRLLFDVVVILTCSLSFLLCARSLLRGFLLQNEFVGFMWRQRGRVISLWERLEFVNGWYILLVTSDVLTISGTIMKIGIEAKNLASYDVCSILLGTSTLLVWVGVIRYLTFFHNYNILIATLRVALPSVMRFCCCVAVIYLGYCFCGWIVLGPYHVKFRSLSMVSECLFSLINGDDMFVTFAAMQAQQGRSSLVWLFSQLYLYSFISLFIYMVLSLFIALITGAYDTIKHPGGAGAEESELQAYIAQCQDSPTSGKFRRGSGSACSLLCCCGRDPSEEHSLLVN
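Agonist activity was taken from a 110 s kinetic Ca2+ dye read on the FDSS after pinning compounds onto TRPML1-DL cells. The cells were seeded at 1,500/well with Tet inducer, incubated about 16 h, then dye-loaded at room temperature.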
D2 potentiator = human D2 receptor positive allosteric modulation | P14416 | AID 624464 | potentiation, % (concentration not given with the values) | 360,000 tested, 0.23% active | DiscoveRx D2 beta-arrestin cells, luminescence, 90 min; 100% = 57 uM dopamine signal; active = potentiation of 50% or more; inconclusive = 30% to 50%; inactive = 30% or less;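 note: compound concentration not given in the record; tested on top of an EC20 dose of dopamine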
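D2 cells co-treated with compound plus 50 nM dopamine (EC20) for 90 min at 37 deg C to detect potentiation. Beta-arrestin recruitment was read as enzyme-fragment luminescence after 1 h at ambient temperature. Full response was set by 57 uM dopamine.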
Six1-Eya2 inh = blocks human Six1 binding to Eya2; AID 651725; 360,000 tested, 0.56% active; activity change, % (no concentration beside the values); Q15475+O00167; AlphaScreen GST-Six1/His-Eya2 binding, biochemical; active compounds read low; control for the full effect not named in the record; in the data active = activity change below about -65%; inconclusive = about -30% to -65%; inactive = above about -30%; note: % is set by controls: 0 for no effect and ±100 for the full control effect
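Six1/Eya2 binding was read as AlphaScreen signal after compounds were pinned into GST-Six1 plus His-tagged Eya2 (5X stock 250/500 nM) in pH 8.0 Tris/NaCl/TCEP buffer, beads added, then incubated 1 h, 37 C, dark.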
Numbers without * were called inactive; & = joins results of further samples; [ ] = remark or other dose.

For CCOC(=O)C(C)n1cnc2sc3c(c2c1=O)CCC3 (configuration not stated) the results were PINK1 modulator -1.3%, CtBP-E1A inh 6, D2 ag -3.2, TRPML1 ag -0.2, D2 potentiator -13 and Six1-Eya2 inh 11.
`COc1ccc(C(C[N+](=O)[O-])c2c(C)[nH]c3ccccc23)cc1OC` (configuration not stated) gave PINK1 modulator -0.6%, CtBP-E1A inh -16, D2 ag 1.9, TRPML1 ag 1.5, D2 potentiator 6 and Six1-Eya2 inh -18.
Screening Cc1cccc(OCCCC(=O)NCCc2ccccc2)c1 returned PINK1 modulator 2.6%, CtBP-E1A inh 11, D2 ag 1.3, TRPML1 ag 1.2, D2 potentiator 9 and Six1-Eya2 inh 3.
`Cc1cn([C@H]2C[C@H](O)[C@@H](/C=C/C(=O)NCc3ccc(N(C)C)cc3)O2)c(=O)[nH]c1=O` gave PINK1 modulator -0.1%, CtBP-E1A inh 7, D2 ag -6.0, TRPML1 ag -0.3, D2 potentiator -6 and Six1-Eya2 inh 1.
CC(=O)c1ccc(N2CCN(C(=O)C3CCC3)CC2)cc1 was read as PINK1 modulator 4.8%[38.3 µM], CtBP-E1A inh 5, D2 ag -2.8, TRPML1 ag 0.5, D2 potentiator -7 and Six1-Eya2 inh 4.
For CC(C)c1nnc(NC(=O)CSc2nc3ccccc3[nH]2)s1 the results were PINK1 modulator 0.6%, CtBP-E1A inh 3, D2 ag -0.5, TRPML1 ag -0.1, D2 potentiator 2 and Six1-Eya2 inh 11.
For CC(OC(=O)Nc1ccccc1)C(=O)OC1CCCCC1 (configuration not stated) the results were PINK1 modulator 5.9%, CtBP-E1A inh -13, D2 ag -0.9, TRPML1 ag 2.2, D2 potentiator 0 and Six1-Eya2 inh 6.
`CC(=C/c1ccccc1)/C=N/n1c(-c2ccncc2)n[nH]c1=S` gave PINK1 modulator 0.9%, CtBP-E1A inh 2, D2 ag 9.0, TRPML1 ag -0.9, D2 potentiator -4 and Six1-Eya2 inh -4.
CCSC1C(=O)N(C)C(SCC)C(=O)N1C (configuration not stated) was read as PINK1 modulator 0.7%, CtBP-E1A inh -5, D2 ag -1.0, TRPML1 ag -0.1, D2 potentiator -6 and Six1-Eya2 inh 5.
CC(=O)c1cccc(NC(=O)COc2ccc(S(=O)(=O)N3CCOCC3)cc2)c1 was read as PINK1 modulator 0.2%, CtBP-E1A inh -4, D2 ag -6.6, TRPML1 ag 1.4, D2 potentiator -19 and Six1-Eya2 inh -2.
Screening Clc1ccc(OCc2nnc(-c3ccccc3Br)o2)cc1 returned PINK1 modulator 6.3%[38.3 µM], CtBP-E1A inh 31, D2 ag -0.8, TRPML1 ag 1.7, D2 potentiator 0 and Six1-Eya2 inh 25.
For CCS(=O)(=O)NCc1cn2ccsc2n1 the results were PINK1 modulator 3.5%, CtBP-E1A inh 3, D2 ag -0.6, TRPML1 ag -0.9, D2 potentiator -6 and Six1-Eya2 inh -1.
CC1CC(C)CN(c2ncnc3c2cnn3C)C1 (configuration not stated) was read as PINK1 modulator 2.7%, CtBP-E1A inh -3, D2 ag -3.8, TRPML1 ag 1.0, D2 potentiator 5 and Six1-Eya2 inh 3.
For NCC12CC3CC(C1)CC(c1ccc(Br)cc1)(C3)C2 the results were PINK1 modulator -1.1%, D2 ag -5.1, TRPML1 ag -0.3, D2 potentiator -25 and Six1-Eya2 inh 2.
`Cc1cccc(NC(=O)CSc2nc(=O)n(CCCN3CCOCC3)c3c2CCCC3)c1C` gave PINK1 modulator 1.8%, CtBP-E1A inh 0, D2 ag 1.0, TRPML1 ag -1.0, D2 potentiator -12 and Six1-Eya2 inh -1.
`O=C(c1ccc(C(F)(F)F)cc1)N1CCC(=O)N([C@H](COCc2ccc(C(F)(F)F)cc2)Cc2ccccc2)CC1` gave PINK1 modulator 2.1%, CtBP-E1A inh -12, TRPML1 ag 1.4 and Six1-Eya2 inh -9.
For CC(=O)N(CCS(=O)(=O)c1ccc(Cl)cc1)Cc1cccs1 the results were PINK1 modulator -0.7%, D2 ag -5.6, TRPML1 ag -0.9, D2 potentiator -19 and Six1-Eya2 inh 1.
For CN(C)S(=O)(=O)c1ccc2c(c1)/C(=C/c1cc3c([nH]1)CCCC3)C(=O)N2 the results were PINK1 modulator inconclusive, CtBP-E1A inh -1, D2 ag 4.7, TRPML1 ag inconclusive, D2 potentiator -26 and Six1-Eya2 inh -2.
For C=CCn1c(=O)/c(=C/c2ccc(Cl)cc2)s/c1=C(\C#N)c1nnc2n1CCCCC2 the results were PINK1 modulator -4.2%, CtBP-E1A inh -3, D2 ag -0.8, TRPML1 ag 0.4, D2 potentiator 5 and Six1-Eya2 inh -5.
`C1CCC(NC2=NCCO2)CC1` gave PINK1 modulator 0.5%, CtBP-E1A inh -8, D2 ag -1.2, TRPML1 ag 0.3, D2 potentiator -9 and Six1-Eya2 inh 3.

Overlap with the part before: 4 entries, followed by the next part.
For CC(=O)N(CCS(=O)(=O)c1ccc(Cl)cc1)Cc1cccs1 the results were PINK1 modulator -0.7%, D2 ag -5.6, TRPML1 ag -0.9, D2 potentiator -19 and Six1-Eya2 inh 1.
For CN(C)S(=O)(=O)c1ccc2c(c1)/C(=C/c1cc3c([nH]1)CCCC3)C(=O)N2 the results were PINK1 modulator inconclusive, CtBP-E1A inh -1, D2 ag 4.7, TRPML1 ag inconclusive, D2 potentiator -26 and Six1-Eya2 inh -2.
For C=CCn1c(=O)/c(=C/c2ccc(Cl)cc2)s/c1=C(\C#N)c1nnc2n1CCCCC2 the results were PINK1 modulator -4.2%, CtBP-E1A inh -3, D2 ag -0.8, TRPML1 ag 0.4, D2 potentiator 5 and Six1-Eya2 inh -5.
`C1CCC(NC2=NCCO2)CC1` gave PINK1 modulator 0.5%, CtBP-E1A inh -8, D2 ag -1.2, TRPML1 ag 0.3, D2 potentiator -9 and Six1-Eya2 inh 3.
Screening CCCCNC(=O)c1cc(-c2ccc(F)cc2)on1 returned PINK1 modulator -0.9%[38.3 µM], CtBP-E1A inh 10, D2 ag -1.9, TRPML1 ag 1.9, D2 potentiator -11 and Six1-Eya2 inh 18.
`CCOC(=O)C(=CNc1cccc(C)c1C)C(=O)OCC` gave CtBP-E1A inh -5, D2 ag 5.6, TRPML1 ag 4.2, D2 potentiator 8 and Six1-Eya2 inh 3.
Cc1ccc(S(=O)(=O)CCC(=O)OCC(=O)Nc2cc(F)ccc2C)cc1 was read as PINK1 modulator -1.2%, CtBP-E1A inh 8, D2 ag -5.3, TRPML1 ag -0.3, D2 potentiator -25 and Six1-Eya2 inh 24.
`O=C(COc1ccccc1F)NNC(=O)c1ccc(N2CCCCC2)c([N+](=O)[O-])c1` gave PINK1 modulator 3.9%, CtBP-E1A inh -7, D2 ag -3.0, TRPML1 ag 0.4, D2 potentiator -3 and Six1-Eya2 inh -10.
`O=C(COC(=O)c1ccc(Cl)nc1)NCCC1=CCCCC1` gave PINK1 modulator 0.1%, CtBP-E1A inh 3, D2 ag -0.9, TRPML1 ag 0.5, D2 potentiator -10 and Six1-Eya2 inh 10.
Screening COC(=O)c1sccc1NC(=O)CSc1nnnn1-c1ccccc1C returned PINK1 modulator -1.9%, CtBP-E1A inh 10, D2 ag -1.4, TRPML1 ag 2.3, D2 potentiator -15 and Six1-Eya2 inh -1.
`CCCNC(=O)c1ccccc1NC(=O)c1ccc2c(c1)NC(=O)C(C)S2` (configuration not stated) gave PINK1 modulator 0.2%, CtBP-E1A inh 5, D2 ag 8.8, TRPML1 ag -0.3, D2 potentiator -4 and Six1-Eya2 inh -5.
Cc1cc(C)c(C#N)c(SCC(=O)Nc2ccccc2C)n1 was read as PINK1 modulator 20%, CtBP-E1A inh -1, D2 ag -0.3, TRPML1 ag -0.9, D2 potentiator -7 and Six1-Eya2 inh 10.
`CCOc1ccc(NC(=O)CN(C)C(=O)C(C)N2C(=O)c3ccccc3C2=O)cc1OCC` (configuration not stated) gave PINK1 modulator -0.6%, CtBP-E1A inh 5, D2 ag -4.1, TRPML1 ag -0.4, D2 potentiator 1 and Six1-Eya2 inh 4.
COc1cccc(N2C(=NC(=O)COc3ccccc3)SC3CS(=O)(=O)CC32)c1 (configuration not stated) was read as PINK1 modulator 2.6%, CtBP-E1A inh 0, D2 ag 3.2, TRPML1 ag 0.2, D2 potentiator -6 and Six1-Eya2 inh -3.
`Nc1nc(Cl)nc2ncn(Cc3ccccc3)c12` gave PINK1 modulator -1.9%, CtBP-E1A inh 10, D2 ag 9.0, TRPML1 ag 0.5, D2 potentiator -6 and Six1-Eya2 inh 0.
Screening CCOC(=O)Nc1sc(C(=O)N(C)C)c(C)c1C(=O)OCC returned PINK1 modulator 1.9%, CtBP-E1A inh 6, D2 ag -1.4, TRPML1 ag -0.7, D2 potentiator -9 and Six1-Eya2 inh 9.
`COc1ccc(S(=O)(=O)NCC(c2ccco2)N2CCOCC2)cc1` (configuration not stated) gave PINK1 modulator 0.4%&1.6%, CtBP-E1A inh 1, D2 ag -7.8, TRPML1 ag -0.8&1.2, D2 potentiator -27 and Six1-Eya2 inh -1.
`COc1cccc(N2CCN(S(=O)(=O)c3ccc(-c4cnc(C5CC5)o4)cc3)CC2)c1` gave PINK1 modulator 13%&5.3%, CtBP-E1A inh -6, D2 ag -2.9, TRPML1 ag -0.3&-1.1, D2 potentiator -13 and Six1-Eya2 inh -6.
Screening CN(CC(=O)Nc1ccc(Cl)c(Cl)c1)C(=O)CNC(=O)Cc1ccccc1 returned PINK1 modulator 2.3%, CtBP-E1A inh 1, D2 ag -2.9, TRPML1 ag -0.4, D2 potentiator -6 and Six1-Eya2 inh 2.
`COC(=O)[C@]12CCCCC=C1N(Cc1ccccc1)C(=O)[C@H](CC(=O)N1CCC(c3ccccc3)CC1)C2` gave PINK1 modulator 0.3%, CtBP-E1A inh -17, TRPML1 ag -0.7 and Six1-Eya2 inh -20.
O=[N+]([O-])c1ccccc1OCCCNCc1ccccc1 was read as PINK1 modulator -0.8%, CtBP-E1A inh 3, D2 ag -3.5, TRPML1 ag 0.9, D2 potentiator -19 and Six1-Eya2 inh -6.
O=C(/C=C/c1cccs1)Nc1nccs1 was read as PINK1 modulator 1.2%, D2 ag -5.9, TRPML1 ag 1.0, D2 potentiator -4 and Six1-Eya2 inh 3.
For COC(=O)c1ccc(N2CCOCC2)c(NC(=O)c2ccc(Br)o2)c1 the results were PINK1 modulator 1.1%, CtBP-E1A inh 4, D2 ag -6.2, TRPML1 ag -0.3, D2 potentiator -3 and Six1-Eya2 inh 6.
Screening Cc1ccc(OCC(=O)NC2CCCCCC2)cc1C returned PINK1 modulator 8.5%, CtBP-E1A inh 14, D2 ag 4.7, TRPML1 ag 1.6, D2 potentiator -2 and Six1-Eya2 inh 7.
`O=C(COC(=O)c1ccccc1)NCCC1=CCCCC1` gave PINK1 modulator -0.8%, CtBP-E1A inh -1, D2 ag -5.4, TRPML1 ag 0.2, D2 potentiator -27 and Six1-Eya2 inh -8.
Screening O=C(NCCSc1c[nH]c2ccccc12)c1c(F)cccc1F returned PINK1 modulator 0.3%, CtBP-E1A inh -10, D2 ag -1.7, TRPML1 ag -0.8, D2 potentiator 1 and Six1-Eya2 inh -1.
`CCSc1nnc(NC(=O)c2ccc(C)o2)s1` gave PINK1 modulator -2.8%, CtBP-E1A inh 7, D2 ag -1.4, TRPML1 ag -0.4, D2 potentiator -2 and Six1-Eya2 inh -1.

Assay outcomes from PubChem.
